MITF inhib: inhibitors of MITF; AID 2240; inhibition, % (no concentration beside the values); hit rate 0.28% among 37,000; TRPM1 promoter luciferase, luminescence, 24 h;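 active = most replicates at 85% or more, or half of them and the mean; inconclusive = half reach 85% but not the mean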;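 note: human melanocyte line stably carrying TRPM1 promoter luciferase reporter; 0% = vehicle wells and 100% = a positive control; the first replicate is given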
Shh pathway inh: blocks Sonic Hedgehog signaling. inhibition, % (test concentration not listed). hit rate 2.1% among 22,000. Shh-LIGHT2 Gli-luciferase reporter, 30 h. AID 2313;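 active = replicate mean of 65% or more; inconclusive = mean lower but half the replicates past it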;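 note: pathway switched on by Shh-conditioned medium diluted 1 in 25 in low serum; 100 nL library stock added to about 40 µL; 0% = median of neutral wells and 100% = positive control level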
PD-1 reversal: reversal of PD-1 mediated T-cell inhibition | primary human CD4 T cells, PD-L1 beads, CellTiter-Glo 96 h | activation, % (no concentration beside the values) | 29,000 tested, under 10 active | AID 2316;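 active = replicate mean of 50% or more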;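 note: 0% = median vehicle wells and 100% = positive control; 100 nL library stock added to about 50 µL; numbers are from one replicate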
YB-1 expr inh: YB-1 expression inhibition; U2OS, qRT-PCR YB-1 vs CDIP delta delta Cp, 16 h; stronger effect = higher value; zero = DMSO, each unit about twofold; delta delta Cp (YB-1 minus CDIP) (test concentration not listed); hit rate 0.37% among 30,000;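 active = delta delta Cp rounded down to an integer at or above 3, about 3 SD of DMSO wells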;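 note: higher means less YB-1 transcript or more CDIP transcript relative to DMSO; stock transfer was 100 nL into about 100 µL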
* = called active by the depositor. Not all compounds are listed. The share of hits here may be higher or lower than overall.

How did C[C@H](CO)N1C[C@H](C)[C@H](CN(C)S(=O)(=O)c2ccc(Cl)cc2)Oc2c(NC(=O)Nc3ccccc3)cccc2C1=O do in these assays?
MITF inhib: -1; Shh pathway inh: 117*; YB-1 expr inh: -0.28

What do the screens show for `C[C@@H]1CN([C@@H](C)CO)C(=O)c2cccc(NC(=O)C3CCOCC3)c2O[C@H]1CN(C)Cc1ccncc1`?
MITF inhib: -2; Shh pathway inh: 8; PD-1 reversal: 2.0; YB-1 expr inh: -0.017

Results for O=C1CC(c2ccccc2)C(=O)N1c1cc(Cl)cc(Cl)c1 (stereo not given) ?
MITF inhib: -14; Shh pathway inh: -24; PD-1 reversal: -1.1; YB-1 expr inh: 0.19

Results for COc1ccc(S(=O)(=O)N(C)CC(=O)Nc2ccccc2F)cc1C ?
MITF inhib: 27; PD-1 reversal: -1.9

How did O=C(COc1ccccc1O)N1CCCC1 do in these assays?
MITF inhib: -20; Shh pathway inh: -8; PD-1 reversal: 1.7; YB-1 expr inh: -0.078

Results for C[C@H]1CN([C@@H](C)CO)C(=O)c2cc(NC(=O)CCN3CCOCC3)ccc2O[C@H]1CN(C)C(=O)NC1CCCCC1 ?
MITF inhib: 0; YB-1 expr inh: 0.086

Results for CC(C)(C)NCC(O)c1cc(O)cc(O)c1 (stereo not given) ?
MITF inhib: -15; Shh pathway inh: -9; YB-1 expr inh: 0.13

How did O=C(CSc1nnc(-c2ccccc2O)n1-c1ccccc1)Nc1ccc(N2CCOCC2)cc1 do in these assays?
MITF inhib: 29; PD-1 reversal: 0.1

What do the screens show for `CN(CC(=O)Nc1ccccc1-c1ccccc1)S(=O)(=O)c1ccc(Br)cc1`?
MITF inhib: 11; PD-1 reversal: 0.5

Results for Cc1ccc(S(=O)(=O)N(C)C[C@@H]2Oc3ccc(NS(=O)(=O)c4cccs4)cc3C(=O)N([C@H](C)CO)C[C@@H]2C)cc1 ?
MITF inhib: -7; YB-1 expr inh: 0.23

What do the screens show for `Cc1noc(C)c1NC(=O)N(C)C[C@@H]1Oc2ccc(NS(=O)(=O)c3cccs3)cc2C(=O)N([C@H](C)CO)C[C@H]1C`?
MITF inhib: 1; Shh pathway inh: -37; PD-1 reversal: 3.4; YB-1 expr inh: 0.27

Results for C[C@H](CO)N1C[C@H](C)[C@@H](CN(C)C(=O)NC2CCCCC2)Oc2ccc(NS(=O)(=O)c3ccccc3)cc2C1=O ?
MITF inhib: -4; Shh pathway inh: -23; PD-1 reversal: 0.1; YB-1 expr inh: 0.065

How did CNC(=O)c1cccc2cccc(Br)c12 do in these assays?
MITF inhib: 9; Shh pathway inh: -12; PD-1 reversal: -0.5; YB-1 expr inh: -0.67

How did COc1ccc(OC)c(S(=O)(=O)NCC2CCCO2)c1 (stereo not given) do in these assays?
MITF inhib: 1; PD-1 reversal: 3.0

Results for COc1ccc(NC(=O)N(C)C[C@H]2Oc3ccc(NC(=O)Cc4cn(C)c5ccccc45)cc3C(=O)N([C@@H](C)CO)C[C@H]2C)cc1 ?
MITF inhib: 6; Shh pathway inh: 13; PD-1 reversal: -0.8; YB-1 expr inh: -0.77

Results for COc1cc(O)c(C(=O)/C=C/c2ccc(O)c(OC)c2)c(OC)c1 ?
MITF inhib: 32; Shh pathway inh: 7; YB-1 expr inh: -0.38

How did C[C@@H]1CN([C@@H](C)CO)C(=O)c2cccc(NS(=O)(=O)c3ccccc3)c2O[C@@H]1CN(C)C(=O)Nc1ccc(C(F)(F)F)cc1 do in these assays?
MITF inhib: 40; Shh pathway inh: -11; PD-1 reversal: -1.6; YB-1 expr inh: -0.12

Results for COC(=O)c1c(NC(=O)CC2NCCNC2=O)sc2c1CCCC2 (stereo not given) ?
MITF inhib: 2; PD-1 reversal: -0.8

What do the screens show for `O=C(COc1ccccc1Cl)Nc1cccc(NC(=O)c2ccco2)c1`?
MITF inhib: -59; PD-1 reversal: 0.3

Results for CC1(C(=O)NCCCn2ccnc2)CC1(Cl)Cl (stereo not given) ?
MITF inhib: -2; PD-1 reversal: 1.2

What do the screens show for `C[C@H]1CN([C@@H](C)CO)C(=O)Cc2cc(NC(=O)Nc3ccc(F)cc3)ccc2O[C@H]1CN(C)S(=O)(=O)c1ccc(Cl)cc1`?
MITF inhib: 31; Shh pathway inh: 13; PD-1 reversal: -2.0; YB-1 expr inh: 0.036

Results for COc1ccc(CN(C)C[C@H]2Oc3ccc(NC(=O)CCN4CCOCC4)cc3CC(=O)N([C@@H](C)CO)C[C@@H]2C)cc1 ?
MITF inhib: -27; Shh pathway inh: -9; YB-1 expr inh: 0.081

How did C[C@H](CO)N1C[C@H](C)[C@H](CN(C)Cc2ccc3c(c2)OCO3)Oc2ccc(NC(=O)Nc3ccc4c(c3)OCO4)cc2CC1=O do in these assays?
MITF inhib: -4; Shh pathway inh: -29; YB-1 expr inh: -0.15

What do the screens show for `CN(C)C=Nc1nonc1-c1ccccc1`?
MITF inhib: -7; Shh pathway inh: -30; PD-1 reversal: 0.2; YB-1 expr inh: -0.25

A run of entries from further up, for reference:
Results for Cc1ccc(S(=O)(=O)N(C)C[C@@H]2Oc3ccc(NS(=O)(=O)c4cccs4)cc3C(=O)N([C@H](C)CO)C[C@@H]2C)cc1 ?
MITF inhib: -7; YB-1 expr inh: 0.23

What do the screens show for `Cc1noc(C)c1NC(=O)N(C)C[C@@H]1Oc2ccc(NS(=O)(=O)c3cccs3)cc2C(=O)N([C@H](C)CO)C[C@H]1C`?
MITF inhib: 1; Shh pathway inh: -37; PD-1 reversal: 3.4; YB-1 expr inh: 0.27

Results for C[C@H](CO)N1C[C@H](C)[C@@H](CN(C)C(=O)NC2CCCCC2)Oc2ccc(NS(=O)(=O)c3ccccc3)cc2C1=O ?
MITF inhib: -4; Shh pathway inh: -23; PD-1 reversal: 0.1; YB-1 expr inh: 0.065

How did CNC(=O)c1cccc2cccc(Br)c12 do in these assays?
MITF inhib: 9; Shh pathway inh: -12; PD-1 reversal: -0.5; YB-1 expr inh: -0.67

How did COc1ccc(OC)c(S(=O)(=O)NCC2CCCO2)c1 (stereo not given) do in these assays?
MITF inhib: 1; PD-1 reversal: 3.0

Results for COc1ccc(NC(=O)N(C)C[C@H]2Oc3ccc(NC(=O)Cc4cn(C)c5ccccc45)cc3C(=O)N([C@@H](C)CO)C[C@H]2C)cc1 ?
MITF inhib: 6; Shh pathway inh: 13; PD-1 reversal: -0.8; YB-1 expr inh: -0.77

Results for COc1cc(O)c(C(=O)/C=C/c2ccc(O)c(OC)c2)c(OC)c1 ?
MITF inhib: 32; Shh pathway inh: 7; YB-1 expr inh: -0.38

(list continues)
What do the screens show for `C[C@H](CO)N1C[C@H](C)[C@H](CN(C)C)Oc2ccc(NC(=O)C3CC3)cc2C1=O`?
MITF inhib: 9; Shh pathway inh: -103; YB-1 expr inh: -0.22

How did CCN(CC(=O)Nc1cccc([N+](=O)[O-])c1)S(=O)(=O)c1ccc(F)cc1 do in these assays?
MITF inhib: -1; PD-1 reversal: -0.1

What do the screens show for `COC(=O)c1cc(NC(=S)NCc2cccnc2)cc(C(=O)OC)c1`?
MITF inhib: -17; PD-1 reversal: -1.3

How did O=C(c1ccco1)N1CCN(CCOc2ccccc2)CC1 do in these assays?
MITF inhib: -9; Shh pathway inh: -38; PD-1 reversal: 4.5; YB-1 expr inh: -0.15

How did CCOC(=O)C1=C(C)NC(=S)NC1c1ccc(-c2ccccc2Cl)o1 (stereo not given) do in these assays?
MITF inhib: 11; Shh pathway inh: 6; PD-1 reversal: -2.5; YB-1 expr inh: -0.28

Results for CC1(C)Oc2ccc3ccc(=O)oc3c2CC1O (stereo not given) ?
MITF inhib: -16; Shh pathway inh: 6; YB-1 expr inh: 0.055

How did COc1ccccc1C1CCN(Cc2cccc3ccccc23)CC1 do in these assays?
MITF inhib: 7; Shh pathway inh: -6; PD-1 reversal: -7.1; YB-1 expr inh: 0.58

Results for O=C(OCc1ccc(-c2cccc(Cl)c2Cl)o1)c1cccnc1 ?
MITF inhib: -28; PD-1 reversal: 1.5

Results for CC1CCc2c(sc3ncn(CC(=O)Nc4ccccc4C(F)(F)F)c(=O)c23)C1 (stereo not given) ?
MITF inhib: -11; PD-1 reversal: -0.3

How did Cc1c(Br)c([N+](=O)[O-])nn1C(C)C(=O)NCC1CCCO1 (stereo not given) do in these assays?
MITF inhib: -2; PD-1 reversal: 3.4

What do the screens show for `C[C@H](CO)N1C[C@H](C)[C@H](CN(C)Cc2ccc(C(=O)O)cc2)Oc2c(NC(=O)Nc3ccc(F)cc3)cccc2C1=O`?
MITF inhib: 7; Shh pathway inh: 16; PD-1 reversal: 1.0; YB-1 expr inh: -0.2

Results for c1ccc(CSc2ncnc3c2oc2ccccc23)cc1 ?
MITF inhib: 12; Shh pathway inh: 21; PD-1 reversal: 0.8; YB-1 expr inh: -0.32

Results for C[C@@H]1CN([C@H](C)CO)C(=O)Cc2cc(NC(=O)C3CCCCC3)ccc2O[C@H]1CN(C)Cc1ccc(C(=O)Nc2ccccc2N)cc1 ?
MITF inhib: 11; PD-1 reversal: -4.8; YB-1 expr inh: -0.29

How did COc1ccc(CN(C)C[C@@H]2Oc3c(NC(=O)Nc4ccc(OC)cc4)cccc3C(=O)N([C@H](C)CO)C[C@H]2C)cc1 do in these assays?
MITF inhib: 21; Shh pathway inh: 16; YB-1 expr inh: 0.062

Results for Cn1c(SCC(N)=O)nnc1-c1cccc(Cl)c1 ?
MITF inhib: -23; PD-1 reversal: 1.0

How did O=c1cc(NCc2ccccc2)n(-c2ccccc2)c(=O)n1-c1ccccc1 do in these assays?
MITF inhib: 6; PD-1 reversal: -0.2; YB-1 expr inh: -0.34

How did Oc1ccc2ccccc2c1C1Nc2ccccc2-n2cccc21 (stereo not given) do in these assays?
MITF inhib: 36; Shh pathway inh: 2; PD-1 reversal: -4.0; YB-1 expr inh: -0.58

How did COc1ccc(NC(=O)CN(C)S(=O)(=O)c2ccc(F)cc2)cc1OC do in these assays?
MITF inhib: -13; PD-1 reversal: 2.3

Results for C[C@@H]1CN([C@H](C)CO)C(=O)Cc2cc(NC(=O)CCCCCC(=O)Nc3ccccc3N)ccc2O[C@@H]1CN(C)C(=O)Nc1cccc2ccccc12 ?
MITF inhib: -11; PD-1 reversal: -0.5; YB-1 expr inh: 0.62

Results for Cc1noc(C)c1NC(=O)Nc1ccc2c(c1)C(=O)N([C@H](C)CO)C[C@H](C)[C@@H](CN(C)CC1CCCCC1)OCCCC[C@@H](C)O2 ?
MITF inhib: -15; Shh pathway inh: 5; PD-1 reversal: -1.0; YB-1 expr inh: -0.19

How did C[C@H](CO)N1C[C@H](C)[C@@H](CN(C)S(=O)(=O)c2ccccc2)Oc2ccc(NC(=O)Cc3cn(C)c4ccccc34)cc2C1=O do in these assays?
MITF inhib: 23; PD-1 reversal: -1.7; YB-1 expr inh: 0.11

What do the screens show for `C=CC(C)(O)CC/C=C(\C)C(=O)OCC1CCC2C(C(=O)O)=COC(OC3OC(CO)C(O)C(O)C3O)C12` (stereo not given)?
MITF inhib: -1; Shh pathway inh: -29; PD-1 reversal: 0.6; YB-1 expr inh: 0.046

Results for Cc1noc(C)c1NC(=O)Nc1ccc2c(c1)CC(=O)N([C@H](C)CO)C[C@@H](C)[C@@H](CN(C)Cc1ccc(Cl)c(Cl)c1)O2 ?
MITF inhib: -10; Shh pathway inh: -19; PD-1 reversal: -1.9; YB-1 expr inh: 0.63

How did Cc1ccc(S(=O)(=O)Nc2ccc3c(c2)CC(=O)N([C@@H](C)CO)C[C@H](C)[C@H](CN(C)S(=O)(=O)c2cccs2)O3)cc1 do in these assays?
MITF inhib: 6; Shh pathway inh: -9; PD-1 reversal: 0.7; YB-1 expr inh: -0.6

How did Cc1noc(C)c1NC(=O)N(C)C[C@H]1Oc2ccc(NC(=O)NC(C)C)cc2CC(=O)N([C@@H](C)CO)C[C@@H]1C do in these assays?
MITF inhib: -15; Shh pathway inh: -18; PD-1 reversal: 0.2; YB-1 expr inh: -0.065

What do the screens show for `Nc1c(N2CCOCC2)c2ccccc2oc1=O`?
MITF inhib: 11; PD-1 reversal: -0.5; YB-1 expr inh: -0.29

How did C[C@@H]1CN([C@@H](C)CO)C(=O)Cc2cc(NC(=O)Nc3cccc4ccccc34)ccc2O[C@@H]1CN(C)Cc1ccc(Oc2ccccc2)cc1 do in these assays?
MITF inhib: 27; Shh pathway inh: 36; PD-1 reversal: -3.9; YB-1 expr inh: 0.23

What do the screens show for `CC1(C)O[C@@H]2CC3C4C[C@H](F)C5=CC(=O)CC[C@]5(C)C4[C@@H](O)C[C@]3(C)[C@]2(C(=O)CO)O1` (stereo not given in full)?
MITF inhib: -29; Shh pathway inh: inconclusive; YB-1 expr inh: 0.16

What do the screens show for `C[C@H]1CN([C@@H](C)CO)C(=O)c2cc(NS(=O)(=O)c3ccccc3)ccc2O[C@H]1CN(C)S(=O)(=O)c1ccc(F)cc1`?
MITF inhib: -2; Shh pathway inh: 14; PD-1 reversal: -1.9; YB-1 expr inh: 0.045

What do the screens show for `CC(C)[C@H](CO)Nc1nc(Nc2cc(N)cc(Cl)c2)c2ncn(C(C)C)c2n1`?
MITF inhib: 53; Shh pathway inh: 57; PD-1 reversal: -1.2; YB-1 expr inh: 0.62

Results for COc1cc([C@@H]2c3cc4c(cc3[C@H](O)[C@H]3COC(=O)[C@H]23)OCO4)cc(OC)c1OC ?
MITF inhib: 61; Shh pathway inh: 91*; YB-1 expr inh: 0.05
